Assay outcomes deposited in PubChem by National Center for Advancing Translational Sciences (NCATS).
VDR inhibitor – blocks the human vitamin D receptor. P11473. VDR-SRC2-3 peptide fluorescence polarization, 2 h. Potency, µM, for the others: max response, negative = inhibition, actives largely listed as inhibitors. 0.93% of 400,000 active. AID 504847; active means well fitted inhibition curve with a large enough effect; inconclusive means small, poorly fitted or top-dose-only effect, or another doubt; inactive means no such curve, though single readings can be large or run the other way; further: series mostly up to about 120 µM
Target sequence (P11473 whole entry, looked up): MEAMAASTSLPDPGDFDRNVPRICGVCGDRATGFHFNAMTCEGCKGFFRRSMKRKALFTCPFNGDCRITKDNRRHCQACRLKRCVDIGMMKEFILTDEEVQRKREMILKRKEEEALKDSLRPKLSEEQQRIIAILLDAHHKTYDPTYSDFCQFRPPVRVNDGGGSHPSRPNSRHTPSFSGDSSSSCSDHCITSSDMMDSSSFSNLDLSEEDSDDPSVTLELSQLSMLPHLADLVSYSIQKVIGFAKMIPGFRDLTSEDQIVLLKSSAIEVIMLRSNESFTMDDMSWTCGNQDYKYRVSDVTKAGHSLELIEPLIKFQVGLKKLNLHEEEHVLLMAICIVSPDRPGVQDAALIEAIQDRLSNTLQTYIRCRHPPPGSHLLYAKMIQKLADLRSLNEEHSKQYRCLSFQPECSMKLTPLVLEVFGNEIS
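The screen uses fluorescence polarization to detect compounds that interfere with recruitment of the SRC2-3 coactivator peptide to VDR; plates are read after 2 h at room temperature.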
* = called active by the depositor; ? = inconclusive; & = joins results of further samples. On the % scale 0 is the no-effect control and ±100 the full control effect; potency means the concentration at half of the fitted maximal effect.

SMILES | VDR inhibitor
CC(C)COc1ccc(C(=O)N/C(=C\c2cccc([N+](=O)[O-])c2)C(=O)OC(C)C)cc1 | 4%
O=C(Nc1ccccc1[N+](=O)[O-])c1cc(S(=O)(=O)N2CCOCC2)cs1 | -3%
CCc1c(C)sc(NC(=O)C2CCCO2)c1C#N (stereo not drawn) | ?
COc1ccc(NC(=O)C(=O)NCC(c2cccnc2)N2CCc3ccccc3C2)cc1 (stereo not drawn) | 3%
O=C(Nc1ccccc1OC(=O)c1ccc(Cl)cc1)c1ccc(Cl)cc1 | -17%
CCNS(=O)(=O)c1ccc2c(c1)NCC2 | 1%
C=CCNCc1ccccc1[N+](=O)[O-] | -20%
CCOC(=O)c1sc(N(Cc2ccccc2)C(=O)CCl)nc1C | ?
COc1cc(CCNC(=O)c2ccc3c(c2)c(C)c(C)n3Cc2cccc(C)c2)cc(OC)c1OC | 6%
COc1cc(OC)c(/C=N/N2CCN(c3ccccc3OC)CC2)c(OC)c1 | -3%
CC(Sc1cccc[n+]1[O-])c1ccccc1 (stereo not drawn) | 14%
CCOC(=O)N1CCN(CC(O)COc2ccc(C)cc2C(C)(C)C)CC1 (stereo not drawn) | 9%
Cc1ccc(NC(=O)CN(C)C(=O)c2ccccc2Cc2ccccc2)cc1 | -10%
CCOc1ccc(NC(=O)c2c(N)n(C)c(=O)[nH]c2=O)cc1 | -19%
CCNC(=O)CSc1nc2ccccc2c(=O)n1-c1cccc(OC)c1 | -20%
CC(C)(C)c1ccc(S(=O)(=O)NCC(=O)N2CCN(C(=O)c3ccco3)CC2)cc1 | 10%
Cc1ccc(NS(=O)(=O)c2ccc3c(c2)NC(=O)C(C)C(=O)N3)cc1C (stereo not drawn) | -17%
O=C(CN1CCN(c2ccc(Cl)cc2)CC1)Nc1ccc(F)c(F)c1 | 7%&5%
CCOC(=O)c1[nH]c(C)c(C(=O)OCC(=O)NC(=O)NC(C)(C)C)c1C | -13%
OC(CN1C2=NCCCN2c2ccccc21)c1ccc2c(c1)OCO2 (stereo not drawn) | 9%
CC(O)c1nc(C(C)O)n(CC(=O)c2ccccc2)n1 (stereo not drawn) | 9%
COc1cccc(CNC(=O)CCc2cn(Cc3ccccc3Cl)c3ccccc23)c1 | 1%
Cc1cc(C)n2nc(C(=O)Nc3cccc(S(=O)(=O)N(C)c4ccccc4)c3)nc2n1 | -12%
O=C(Nc1ccc(F)cc1F)c1cc2c(=O)n3ccccc3nc2s1 | -6%
O=S(=O)(c1ccc2ccccc2c1)N1CCOCC1 | -24%&0%
Cc1cccc(NC(=O)CCCN=C2NS(=O)(=O)c3ccccc32)c1C | 24%
CCOc1ccc(-n2nc3c(=S)[nH]nc(C)c3c2C)cc1 | -6%
Cc1cc(N2C(=O)C(O)=C(C(=O)c3ccco3)C2c2cccc(Cl)c2)no1 (stereo not drawn) | -18%
CCOCCCNC(=O)C(NC(=O)Cc1cccs1)c1ccc(C)cc1 (stereo not drawn) | -14%
CCCCOc1ccc(CN=C(N)N)cc1Cl | -1%

Another view of some results above.
VDR inhibitor,Structure
-3%,COc1cc(OC)c(/C=N/N2CCN(c3ccccc3OC)CC2)c(OC)c1
14%,CC(Sc1cccc[n+]1[O-])c1ccccc1 (stereo not drawn)
9%,CCOC(=O)N1CCN(CC(O)COc2ccc(C)cc2C(C)(C)C)CC1 (stereo not drawn)
-10%,Cc1ccc(NC(=O)CN(C)C(=O)c2ccccc2Cc2ccccc2)cc1
-19%,CCOc1ccc(NC(=O)c2c(N)n(C)c(=O)[nH]c2=O)cc1
-20%,CCNC(=O)CSc1nc2ccccc2c(=O)n1-c1cccc(OC)c1
10%,CC(C)(C)c1ccc(S(=O)(=O)NCC(=O)N2CCN(C(=O)c3ccco3)CC2)cc1
-17%,Cc1ccc(NS(=O)(=O)c2ccc3c(c2)NC(=O)C(C)C(=O)N3)cc1C (stereo not drawn)
7%&5%,O=C(CN1CCN(c2ccc(Cl)cc2)CC1)Nc1ccc(F)c(F)c1
-13%,CCOC(=O)c1[nH]c(C)c(C(=O)OCC(=O)NC(=O)NC(C)(C)C)c1C
9%,OC(CN1C2=NCCCN2c2ccccc21)c1ccc2c(c1)OCO2 (stereo not drawn)
9%,CC(O)c1nc(C(C)O)n(CC(=O)c2ccccc2)n1 (stereo not drawn)
1%,COc1cccc(CNC(=O)CCc2cn(Cc3ccccc3Cl)c3ccccc23)c1
-12%,Cc1cc(C)n2nc(C(=O)Nc3cccc(S(=O)(=O)N(C)c4ccccc4)c3)nc2n1
-6%,O=C(Nc1ccc(F)cc1F)c1cc2c(=O)n3ccccc3nc2s1
-24%&0%,O=S(=O)(c1ccc2ccccc2c1)N1CCOCC1
24%,Cc1cccc(NC(=O)CCCN=C2NS(=O)(=O)c3ccccc32)c1C
-6%,CCOc1ccc(-n2nc3c(=S)[nH]nc(C)c3c2C)cc1

Other entries follow:
SMILES | VDR inhibitor
COc1ccc(C(=O)O/N=C(/c2cccs2)C(C)(C)C)cc1 | 15%
Cc1ccccc1C(=O)Nc1cc2c(cc1N1CCOCC1)n(C)c(=O)n2C | -4%
Cc1cc(C)nc(SCc2nc3ncccn3c2Br)n1 | 6%
COc1ccc(C)cc1S(=O)(=O)N(C)CC(=O)NC1CC1 | 2%
Cc1ccc(NC(=O)CCC(=O)NNC(=O)c2cccs2)c(C)c1 | 1%
CCOC(=O)c1c(C)nc2sccn12 | 2%
CC(C)(C)C1CCc2sc(-c3nnc(CCl)o3)cc2C1 (stereo not drawn) | 4%
O=C(CCN1CCN(c2ccccc2)CC1)Nc1nccs1 | -3%
O=c1[nH]c(/C=C\c2cccc(Cl)c2)nc(O)c1[N+](=O)[O-] | 28µM*
Cc1ccccc1CC(=O)N1CCCC(CCC(=O)N2CCN(c3ccccn3)CC2)C1 (stereo not drawn) | 8%

Brought forward from above: 2 entries; new compounds follow.
SMILES | VDR inhibitor
O=c1[nH]c(/C=C\c2cccc(Cl)c2)nc(O)c1[N+](=O)[O-] | 28µM*
Cc1ccccc1CC(=O)N1CCCC(CCC(=O)N2CCN(c3ccccn3)CC2)C1 (stereo not drawn) | 8%
COc1cc(OC)c(C(=O)OCC(=O)c2cc(C)n(CC3CCCO3)c2C)cc1OC (stereo not drawn) | -5%
CCCCC[C@H](O)/C=C/[C@@H]1[C@@H](C/C=C\CCCC(=O)O)[C@@H](O)C[C@H]1O | 2%&4%&-10%
Cc1ccc2nc(C)cc(N/N=C/c3cccnc3)c2c1 | -8%
COc1ccc(-c2nc(SCC(=O)Nc3c(C)cc(C)cc3C)n[nH]2)cc1 | 9%
COc1ccc(Br)cc1CN1CCCCCCC1 | 5%
CCOC(=O)[C@@H]1[C@H]2COc3cc(OC)ccc3[C@@H]2N2C(=O)N(c3ccc(C)cc3)C(=O)[C@@]12C | 2%
CCS(=O)(=O)N1CCN(c2c(Cl)cccc2[N+](=O)[O-])CC1 | 3%
O=C(CNc1ccccc1)N/N=C/c1ccc([N+](=O)[O-])cc1 | -17%
CCc1ccc2[nH]c(=O)c(CN(Cc3cccnc3)Cc3nnnn3Cc3ccccc3)cc2c1 | 4%
CCOc1ccc(-c2cc(C(=O)N3CCN(C)CC3)c3ccccc3n2)cc1 | 2%
O=C(CSc1ccccn1)N1CCCC(Nc2ccccc2)C1 (stereo not drawn) | -1%
Nc1ccc[n+](CC(=O)c2ccccc2)c1 | 7%
CCCC(C(=O)NC1CCCC1)N(C(=O)c1snc(C(N)=O)c1N)c1ccc(F)cc1 (stereo not drawn) | -20%
Cc1ccc(S(=O)(=O)c2ccc([N+](=O)[O-])o2)cc1 | 45µM*
CC1CCCN(C(=O)CSc2nnc(-c3ccc(S(=O)(=O)N4CCOCC4)cc3)n2C)C1 (stereo not drawn) | 0%
Cc1cc(C)c2nc(N3CCCC(C(=O)N4CCN(c5ncccn5)CC4)C3)sc2c1 (stereo not drawn) | -7%
O=C(CC1SC(=Nc2ccccc2)N(CCc2c[nH]c3ccccc23)C1=O)Nc1ccccc1F (stereo not drawn) | -20%
Cc1ccc(NS(=O)(=O)c2ccc(NC(=O)C3CC3)cc2)c(C)c1 | -1%
Fc1ccc(-n2c(Cc3ccccc3)nnc2SCc2nc(-c3ccc(Cl)cc3)no2)cc1 | -4%
O=C(NCCc1ccccn1)C1CC(=O)N(Cc2ccccc2Cl)C1 (stereo not drawn) | -9%
CCOC(=O)CNC(=O)c1ccccc1 | 18%
Cc1ccc(S(=O)(=O)CCc2nc3ccccc3n2CCC#N)cc1 | -7%
CC(=O)Nc1nc2n(n1)C(c1ccc(F)cc1)C=C(c1ccc(Cl)cc1)N2 (stereo not drawn) | 2%
O=C(NCc1ccc(F)cc1)c1noc2c1CCCC2 | 1%
CCC(C)(C)NC(=O)CN(C(=O)c1snc(C(N)=O)c1N)c1ccc2c(c1)OCO2 | 1%
CC(C)CCNC(=O)C(CC(C)C)N(Cc1ccc2c(c1)OCO2)C(=O)c1snc(C(N)=O)c1N (stereo not drawn) | -7%
O=C(C1CCCCC1)N(Cc1cccnc1)c1nc2c(F)cc(F)cc2s1 | 14%
Cc1ccc(-c2c3c(=O)n(C)c(=O)n(C)c3c3cnc4ccccc4n23)cc1 | -10%
Cc1ccc(C(=O)N2CCC3(CC2)Oc2ccc(F)cc2C(=O)C32CC(c3ccccc3)=NO2)s1 (stereo not drawn) | -3%
CCN(CC)S(=O)(=O)c1ccc(S(=O)(=O)NCc2cccs2)cc1 | -17%
COc1ccc(N2C(=O)CC(N3CCN(c4ccc(S(=O)(=O)N5CCCC5)cc4)CC3)C2=O)cc1 (stereo not drawn) | 9%
O=C(COC(=O)CNC(=O)c1ccco1)Nc1ncc(Cl)cc1Cl | 21%
CCOc1cc(CNc2cccc3[nH]c(C)nc23)ccc1OC | 16%
COc1ccc(/C=N/NC(=O)c2nc(Cl)c(Cl)c(N)c2Cl)cc1COc1ccccc1F | 0%
CCCc1ccc(C(=O)NNc2cc(Cl)ccc2Cl)cc1 | -3%
CCOC(=O)CNC(=S)N(Cc1ccc(C)cc1)Cc1ccc(C)o1 | -18%
Cc1ccc(C)c(NC(=O)C2CCCC2)c1 | 2%
COc1ccc(C(CCN2CCCC2)c2c(O)cc(OC)cc2OC)cc1 (stereo not drawn) | -7%&2%
CCN(CC(=O)NCc1ccc(Cl)cc1)C(=O)CSCC(=O)Nc1ccc(OC)cc1 | -2%
CCCn1c(=O)n(C)c(=O)c2c(SCC(=O)NC34CC5CC(CC(C5)C3)C4)nc(CC(C)C)nc21 | -8%
CN(CCO)CC(O)CN(c1ccccc1)c1ccccc1 (stereo not drawn) | -17%
CCc1sc(C(=O)Nc2nccs2)cc1C | -14%
CCCCn1c(SCC(=O)c2ccc(OCC)cc2)nc2cc(S(N)(=O)=O)ccc21 | -2%
CC1(C)CCC[C@@](C)([C@H]2CC[C@]3(C)[C@@H]2[C@H](O)C[C@@H]2[C@@]4(C)CC[C@H](O)C(C)(C)[C@@H]4[C@@H](O)C[C@]23C)O1 | 7%
COc1ccc(Br)c(C(=O)Nc2ccc(F)cc2)c1 | -8%
Cc1ccc(CNC(=O)C2CCCN(Cc3cnn(-c4ccccc4)c3-n3cccc3)C2)cc1 (stereo not drawn) | 6%
Cc1cc([N+](=O)[O-])ccc1NC(=O)CSc1nccn1C | 0%
Cc1noc(C)c1C(=O)N1CCC2(CCN(Cc3ccccc3)CC2)CC1 | -3%
COCCCNC(=O)N1[C@H](c2cccs2)[C@@H](C)C(=O)[C@@H](C)[C@@H]1c1cccs1 | 4%
Cc1cc(C(=O)N/N=C/c2ccc(-c3ccc([N+](=O)[O-])cc3Cl)o2)n[nH]1 | -12%
(continued)
SMILES | VDR inhibitor
O=C(NCCN1CCOCC1)c1c[nH]c2ccc(S(=O)(=O)N3CCOCC3)cc2c1=O | -4%
FC(F)(F)c1ccc(C2[C@H]3CN(Cc4cccnc4)[C@H](c4ccccc4)C34CC2(c2ccccc2)C4)cc1 (stereo partly drawn) | -18%
CCn1ccnc1CN(C)C(=O)c1cc(COc2ccc(Cl)cc2OC)on1 | 26%
Cn1c(=O)[nH]c(=O)c2c1nc(N1CCNCC1)n2CCOc1ccccc1 | 0%
O=C(CCNS(=O)(=O)c1ccc(Br)cc1)NC1CCCCC1 | 1%
CCOc1cc2[nH]c(=O)n(CCC(=O)N3CCN(c4ccccc4)CC3)c(=O)c2cc1OCC | 12%
CC1CCCN(S(=O)(=O)c2ccc(-c3ccc(=O)[nH]n3)o2)C1 (stereo not drawn) | -3%
Cc1cccc(OCc2nnc(SC(C)C(=O)O)n2Cc2ccccc2)c1 (stereo not drawn) | -13%
Cn1cc(/C=C(\NC(=O)c2ccccc2)C(=O)NCCCN2CCOCC2)c2ccccc21 | -2%
COc1ccc2[nH]cc(CCNc3ncnc4ccc(-c5c(C)noc5C)cc34)c2c1 | -6%
CC(Sc1ccc(Cl)cc1)C(=O)Nc1ccccc1C(=O)N1CCOCC1 (stereo not drawn) | -6%
COc1ccc(C(=O)c2c3ccc([N+](=O)[O-])cc3[n+]([O-])n2CCCN)cc1 | -6%
COc1ccc(-c2noc(-c3ccc(NCc4ccco4)c([N+](=O)[O-])c3)n2)cc1 | 1%
CCc1ccc(NC(=O)CS(=O)CC(=O)NC(C)CCc2ccco2)cc1 (stereo not drawn) | -4%
CCSc1nc(-c2ccco2)ccc1C#N | -5%
O=C(/C(=N/N=C/c1ccc(O)c(O)c1)c1ccccc1)c1ccccc1 | -15%
O=C(N/N=C\c1ccccc1)c1sccc1-n1cccc1 | 8%
O=S(=O)(c1ccc(Cl)cc1)c1nnn2c1nc(NCc1ccccc1)c1sccc12 | 9%
CC1C/C(=N\NC(=O)c2cccnc2)CC(C)(C)C1 (stereo not drawn) | -18%
COc1cc(S(C)=O)ccc1-c1nc2ncccc2[nH]1 (stereo not drawn) | -8%&-13%&1%
O=C(CNC(=O)c1ccc(Br)o1)NCc1ccc(Cl)cc1Cl | -16%
COc1ccc(CN2C[C@H]3CCCN3c3cc(Br)ccc3S2(=O)=O)cc1 | 5%
O=C(O)c1ccc2c(c1)C(=O)N(c1ccc([N+](=O)[O-])cn1)C2=O | -17%
CCOc1ccc(Nc2ccc(C(=O)O)cc2[N+](=O)[O-])cc1 | 1%
O=C(Cc1cccs1)N(c1ccc(Br)cc1)C1C=CS(=O)(=O)C1 (stereo not drawn) | -15%

These rows are one share of the data. The share of hits here may be higher or lower than overall.
